2A StopGo: lowers the luciferase signal of an FMDV 2A StopGo reporter; human cells with a luciferase reporter of 2A StopGo recoding; control for the full effect not named in the record; Potency, µM (doses to about 57.9 µM), without a hit: at the top dose signal change, negative = less light; hit rate 1.2% among 410,000; AID 1159524; active = well fitted falling curve with a large enough effect; inconclusive = small, poorly fitted or top-dose-only effect; inactive = no such curve, though single readings can be large or run the other way; tested in HEK293T cells; further: on the % scale 0 is the no-effect control and ±100 the full control effect; nearly all actives have a fitted effect of over 45% in size; luciferase light after 4 h
SARS PLpro yeast: inhibitors of SARS-CoV papain-like protease in yeast | S. cerevisiae expressing SARS-CoV PLpro, growth rescue; control for the full effect not named in the record | Potency, µM (titrated, usually from 32.9 µM), without a hit: at the top dose activity, positive = growth rescue | hit rate 0.19% among 330,000; further: 0% is about no effect; nearly all actives have a fitted effect of over 55% in size; growth read by luminescence after 48 h
LASV entry inh: inhibitors of Lassa virus binding or cell entry. Lassa virus pseudotype entry inhibition, cell reporter; control for the full effect not named in the record. Potency, µM (titrated, usually from 37.9 µM), for the others: top-dose activity change, negative = inhibition, hits mostly inhibitors. hit rate 1.2% among 300,000; active means well fitted inhibition curve with a large enough effect; inconclusive means small, poorly fitted or top-dose-only effect, or effect the other way; inactive means flat fitted curve, though single readings scatter; tested in HEK293 cells; further: on the % scale 0 is the no-effect control and ±100 the full control effect; nearly all actives have a fitted effect of over 50% in size; luciferase read-out
Cruzain inh noDet: blocks cruzain activity in detergent-free assay; purified cruzain, Z-FR-AMC fluorescence, no detergent; hit rate 2.3% among 200,000; Potency, µM, for the others: max response, negative = inhibition, usual class: inhibitors; P25779; AID 1476; active means well fitted curve in the direction sought with a large enough effect; inconclusive means small, poorly fitted or top-dose-only effect, or another doubt; inactive means no such curve, though single readings can be large; an effect the other way counts as inactive or inconclusive;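 further: plate controls were enzyme without inhibitor for no effect and buffer without enzyme for full effect; nearly all actives have a fitted effect of over 40% in size; top concentration of the series not given in the record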
Target sequence (P25779 123-467 limits assumed): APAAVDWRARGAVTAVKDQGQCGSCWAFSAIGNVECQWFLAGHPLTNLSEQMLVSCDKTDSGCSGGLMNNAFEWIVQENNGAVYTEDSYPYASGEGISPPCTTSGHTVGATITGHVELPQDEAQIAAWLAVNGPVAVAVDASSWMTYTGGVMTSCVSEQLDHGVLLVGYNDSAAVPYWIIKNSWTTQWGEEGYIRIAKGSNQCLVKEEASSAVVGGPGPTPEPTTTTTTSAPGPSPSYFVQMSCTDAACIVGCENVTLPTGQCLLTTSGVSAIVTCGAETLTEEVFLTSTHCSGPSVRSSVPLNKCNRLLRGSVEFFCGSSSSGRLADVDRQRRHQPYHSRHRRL
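Purified cruzain at 1.5 nM, pre-incubated 15 min with compound at room temperature in 100 mM sodium acetate pH 5.5, 5 mM DTT, 0.00005% Triton X-100. Reaction started with 2 uM Z-FR-AMC; AMC fluorescence increase over 60 s gives rate.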
RE007 growth inh: less growth of the S. pombe RE007 Vpr strain. S. pombe RE007 Vpr strain, BacTiter-Glo ATP luminescence, 24 h; control for the full effect not named in the record. Potency, µM (highest dose often 92.2 µM), for the others: at the highest dose activity change, negative = less growth. hit rate 0.21% among 360,000; active = well fitted falling curve with a large enough effect; inconclusive = small, poorly fitted or top-dose-only effect; inactive = no such curve, though single readings can be large or run the other way;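 further: on the % scale 0 is the no-effect control and ±100 the full control effect; nearly all actives have a fitted effect of over 50% in size; the assay follows cell death caused by Vpr and the record does not say whether a fall means rescue or toxicity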
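Fission yeast RE007 carrying one integrated HIV-1 vpr copy, seeded at OD 0.01 in PMG+AL medium with 23 nL pinned compound. Grown 24 h at 30 degrees; viability read by BacTiter-Glo luminescence after 5 min.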
Cruzain inh Det: inhibitors of Trypanosoma cruzi cruzain with detergent; P25779; purified cruzain, Z-FR-AMC fluorescence, 0.01% Triton; Potency, µM, for inactives: max response, negative = inhibition, hits mostly inhibitors; hit rate 0.43% among 200,000; active means well fitted curve in the direction sought with a large enough effect; inconclusive means small, poorly fitted or top-dose-only effect, or another doubt; inactive means no such curve, though single readings can be large; an effect the other way counts as inactive or inconclusive;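 further: plate controls were neutral wells for no effect and buffer without enzyme for full effect; nearly all actives have a fitted effect of over 40% in size; top concentration of the series not given in the record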
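Detergent-containing run (0.01% Triton X-100) in acetate buffer pH 5.5 with 5 mM DTT: enzyme at 1.5 nM final, 15 min compound preincubation at room temperature, then 2 uM Z-FR-AMC substrate. Activity taken as 60 s fluorescence increase at 360/450 nm.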
Marburg entry inh: inhibitors of Marburg virus binding or cell entry. Marburg virus pseudotyped entry inhibition, cell reporter; control for the full effect not named in the record; about a third of the inactives were read at about 46 µM. Potency, µM (titrated, usually from 37.8 µM), inactives show at the top dose activity change, negative = inhibition, actives largely listed as inhibitors. hit rate 1.8% among 300,000. AID 540276; active = well fitted inhibition curve with a large enough effect; inconclusive = small, poorly fitted or top-dose-only effect, or effect the other way; inactive = flat fitted curve, though single readings scatter; tested in HEK293 cells; about a fifth of its hits are not listed in these tables; further: on the % scale 0 is the no-effect control and ±100 the full control effect; luciferase read-out
NS1 function inh: blocks influenza NS1 protein function | S. cerevisiae slowed by influenza A NS1, growth recovery by OD600 | AID 2326 | hit rate 0.4% among 270,000 | Potency, µM (titrated, usually from 46.1 µM), for inactives: at the highest dose activity, positive = more growth; further: actives are rising curves; nearly all actives have a fitted effect of over 50% in size
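S. cerevisiae expressing influenza A NS1, grown in glucose, washed, then diluted 1:100 into pH 6.0 -URA galactose medium with 23 nl compound. Growth recovery read as OD600; NS1-free strain serves as control.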
Starred values were filed as active, the others as inactive; ? = inconclusive; . = not tested or not shown; & = joins results of further samples; [ ] = dose if it differs, or a comment. Unless noted, the call rests on the fitted dose curve; in most records, active means well fitted rising curve with a large enough effect; inconclusive means small, poorly fitted or top-dose-only effect; inactive means no such curve, though single readings can be large or run the other way. Potency means the concentration at half of the fitted maximal effect.

Below each SMILES – NS1 function inh | RE007 growth inh | SARS PLpro yeast | Marburg entry inh | 2A StopGo | Cruzain inh Det | Cruzain inh noDet | LASV entry inh
COc1ccc(N(CC(=O)NC2CC3CCC2C3)S(=O)(=O)c2ccc(C)cc2)cc1OC (stereo not drawn)
    12% | 6% | 4% | ? | 48%[activator] | . | . | ?
Cc1ccc(CCC(=O)Nc2ccc(C#N)cc2)o1
    -4% | 4% | -2% | . | -8% | . | . | .
Cc1cc(=O)[nH]c(SCC(=O)Nc2cc(S(=O)(=O)N3CCCC3)ccc2Cl)n1
    -3% | 3% | -1% | . | 19% | . | . | .
O=C(CSc1nnc(CNc2ccc(F)cc2)n1Cc1ccccc1)N1CCOCC1
    -2% | -4% | 0% | -1% | -5% | 5.1% | ? | -3%
Cc1ccc(N2CC(C(=O)Nc3nnc(C(C)C)s3)CC2=O)cc1 (stereo not drawn)
    -4% | 14% | -1% | 24% | 3% | 3.9% | 10% | -7%
CCOc1ccc(N2C(=O)c3ccc(C(=O)OCc4c(C)noc4C)cc3C2=O)cc1
    6% | 11% | -2% | 17% | ? | 5.0% | -2% | -4%
CCn1c(CC(=O)Nc2ccccc2OC)nnc1SCC(=O)Nc1ccccc1F
    . | -7% | -1% | 0%[46.1 µM] | -8% | . | . | -1%[46.1 µM]
CCc1ccc(S(=O)(=O)Nc2cccc(C3OCCCO3)c2)cc1
    . | 17% | -3% | ? | 42%[activator] | . | . | ?
CC(C)C(=O)Nc1ccc(C(=O)NNC(=S)NC(=O)c2ccco2)cc1
    -34% | 11% | 0% | . | -7% | . | . | .
COCCn1c(SCC(=O)Nc2cc(C)on2)nc2ccccc21
    2% | 8% | 0% | -25% | -12% | . | . | 2%
CCOC(=O)N1CCC(NC(=O)CC(NS(=O)(=O)c2ccc(Cl)cc2)c2ccco2)CC1 (stereo not drawn)
    -8% | 8% | 1% | -7% | -3% | 7.4% | ? | 3%
O=C(O)c1ccccc1Nc1cccc(OCc2ccc3ccccc3n2)c1
    -7% | -15%[18.4 µM] | . | ? | -19%&-7% | -20%&-0.1% | ? | -7%
O=Cc1ccc(Oc2cnccn2)cc1
    . | 13% | 2% | 2%[46.1 µM] | 0% | . | . | 18%[46.1 µM]
O=C(CN(CCc1ccccc1)C(=O)CNS(=O)(=O)c1ccccc1)NCc1ccco1
    -5% | 10% | 1% | 23% | 2% | -1.6% | 2% | -18%
CC(=O)c1ccc(NC(=O)C(C)n2nc(-c3ccccc3)c3cc(Cl)ccc32)cc1 (stereo not drawn)
    9% | 3% | -1% | -9% | 0% | -5.1% | ? | -2%
O=C(NC1(C(=O)NC2CCCCC2)CCCCC1)c1ccccn1
    1% | 13% | -2% | 23% | 7% | 2.4% | 15% | 7%
COC(=O)c1cc(NC(=O)C2COc3ccccc3O2)ccc1Cl (stereo not drawn)
    -63% | -8% | -22% | ? | 2% | -0.9% | -18% | -13%
CC1CCCC(CC(N)=O)CC1 (stereo not drawn)
    . | 18% | . | 2% | -9% | . | . | 13%
O=C1C=CC(=O)N1Cc1ccncc1
    . | 18% | . | ? | -14% | . | . | 9%
CC(=O)Nc1ccc(S(=O)(=O)N2CCSc3ccccc32)cc1
    . | 16% | 5% | ? | -14% | . | . | -10%

12 consecutive records out of the list so far:
Below each SMILES – NS1 function inh | RE007 growth inh | SARS PLpro yeast | Marburg entry inh | 2A StopGo | Cruzain inh Det | Cruzain inh noDet | LASV entry inh
CC(C)C(=O)Nc1ccc(C(=O)NNC(=S)NC(=O)c2ccco2)cc1
    -34% | 11% | 0% | . | -7% | . | . | .
COCCn1c(SCC(=O)Nc2cc(C)on2)nc2ccccc21
    2% | 8% | 0% | -25% | -12% | . | . | 2%
CCOC(=O)N1CCC(NC(=O)CC(NS(=O)(=O)c2ccc(Cl)cc2)c2ccco2)CC1 (stereo not drawn)
    -8% | 8% | 1% | -7% | -3% | 7.4% | ? | 3%
O=C(O)c1ccccc1Nc1cccc(OCc2ccc3ccccc3n2)c1
    -7% | -15%[18.4 µM] | . | ? | -19%&-7% | -20%&-0.1% | ? | -7%
O=Cc1ccc(Oc2cnccn2)cc1
    . | 13% | 2% | 2%[46.1 µM] | 0% | . | . | 18%[46.1 µM]
O=C(CN(CCc1ccccc1)C(=O)CNS(=O)(=O)c1ccccc1)NCc1ccco1
    -5% | 10% | 1% | 23% | 2% | -1.6% | 2% | -18%
CC(=O)c1ccc(NC(=O)C(C)n2nc(-c3ccccc3)c3cc(Cl)ccc32)cc1 (stereo not drawn)
    9% | 3% | -1% | -9% | 0% | -5.1% | ? | -2%
O=C(NC1(C(=O)NC2CCCCC2)CCCCC1)c1ccccn1
    1% | 13% | -2% | 23% | 7% | 2.4% | 15% | 7%
COC(=O)c1cc(NC(=O)C2COc3ccccc3O2)ccc1Cl (stereo not drawn)
    -63% | -8% | -22% | ? | 2% | -0.9% | -18% | -13%
CC1CCCC(CC(N)=O)CC1 (stereo not drawn)
    . | 18% | . | 2% | -9% | . | . | 13%
O=C1C=CC(=O)N1Cc1ccncc1
    . | 18% | . | ? | -14% | . | . | 9%
CC(=O)Nc1ccc(S(=O)(=O)N2CCSc3ccccc32)cc1
    . | 16% | 5% | ? | -14% | . | . | -10%

Additional results follow:
Below each SMILES – NS1 function inh | RE007 growth inh | SARS PLpro yeast | Marburg entry inh | 2A StopGo | Cruzain inh Det | Cruzain inh noDet | LASV entry inh
O=C(O)c1ccccc1SCc1cn2cc(Cl)ccc2n1
    3% | -27% | 0% | ? | 6% | . | . | 2%[46.1 µM]
COc1ccc(C(=O)O)cc1S(N)(=O)=O
    . | 1% | -1% | 0% | -11% | . | . | 26%
Cc1ccc(-n2nc(C(=O)N(C)Cc3ccccc3)c3c4ccccc4n(C)c3c2=O)cc1
    . | . | . | 23%[46.1 µM] | 15% | -3.4% | 13% | 15%[46.1 µM]
COc1cc2c3c(c1)/C(=C1/SC(NC(C)=O)=NC1=O)C(=O)N3C(C)(C)C=C2C
    -33% | ? | ? | -2%[46.1 µM] | -24% | -4.5% | ? | 22%
Cc1ccccc1N1C(N)=NC(N)=NC1(C)C
    5% | 0% | -2% | ? | -18% | -2.2% | 1% | 18%
CCN(CC(=O)Nc1ccc(N2CCOCC2)cc1)C(=O)COc1ccccc1OC
    2% | -8% | 1% | ? | 41%[activator] | . | . | 5%
Cc1nnc2c(NC3CCCCC3)nc3ccccc3n12
    -2% | 24% | -2% | . | -18% | . | . | .
Cc1ccc(CCNC(=O)NCc2noc3ccccc23)cc1
    . | . | . | . | 18% | -1.8% | 5% | ?
CCN(CC)S(=O)(=O)c1ccc(N2CCOCC2)c(NC(=O)c2ccc3ccccc3c2)c1
    4% | -1% | 7% | ? | -3% | -5.3% | 14% | ?
NS(=O)(=O)c1ccc2nc(NC(=O)COc3ccc(Cl)cc3Cl)sc2c1
    . | . | . | . | 2% | -2.8% | ? | 5%[46.1 µM]
O=C(Nc1cccc([N+](=O)[O-])c1)N(c1ccccc1)c1ccccc1
    . | 14% | . | ? | -20% | . | . | 8%
COc1ccc(N(C(=O)C2CCCCC2)C2C=CS(=O)(=O)C2)c(OC)c1 (stereo not drawn)
    -2% | -8% | 1% | -3% | . | 7.8% | 10% | -27%
Oc1ccc(/C=N\Nc2cc(N3CCOCC3)nc(N3CCOCC3)n2)c(O)c1
    7% | -12% | 9% | ? | -12% | -12% | -7% | ?
O=C(Nc1ccc(N2CCOCC2)c2nonc12)C1CCCC1
    7% | 7% | 1% | 9% | 23% | -4.1% | -11% | -4%
CCN(CC)C(=O)c1c(C)nc2ccccn12
    -2% | 26% | 5% | 3% | -18% | 3.7% | 9% | 8%
COc1ccc(OC)c(-c2cc(C(=O)Nc3cccc(Cl)c3)no2)c1
    -36% | -3% | -4% | 2% | -11% | -16% | -13% | -21%
COc1ccc(/C(N)=N/OC(=O)c2cccc([N+](=O)[O-])c2)cc1
    -4% | -1% | 4% | ? | 41%[activator] | -1.0% | -14% | ?
CCCCN(CCCC)CC(O)CN1C(=O)NC(C)(C)C1=O (stereo not drawn)
    -4% | -5% | 4% | 2% | -20% | 4.7% | -5% | -7%
Cc1ccc(C(=O)c2c(NC(=O)CSc3nnc(N)s3)sc3c2CCCC3)cc1
    52% | 6% | -18% | -2% | ? | -7.3% | -21% | ?
COc1cc2c(cc1NC(=O)CSc1nnnn1-c1ccccc1)oc1ccccc12
    -33% | 4% | 3% | ? | -28% | 3.9% | 32µM* | ?
Cc1ccc(-n2ncc3c(=O)n(CC(=O)NCc4ccco4)cnc32)cc1C
    3% | 2% | 2% | . | -6% | 1.4% | ? | .
CCn1c(O)c(C2=NCCCC2)c2ccccc21
    -145% | -28% | -9% | ? | -1% | -6.2% | -3% | 10%
COc1cc(/C=N/NC(=S)Nc2cccc(S(=O)(=O)N(C)C)c2)ccc1O
    5% | 5% | -11% | ? | -26% | -18% | -8% | ?
CCOC(CCNC(=O)c1cc2c(=O)[nH]c3ccccc3c2s1)OCC
    2% | 5% | 6% | . | -5% | . | . | .
O=C(c1ccc(NS(=O)(=O)c2cccs2)cc1)N1CCOCC1
    -4% | 9% | ? | 25% | -5% | . | . | 9%
Clc1ccccc1-c1nnc2sc(-c3ccncc3)nn12
    4% | 6% | -5% | . | -3% | 1.9% | 0% | .
N#Cc1ccc(-c2ccc(OCC(O)Cn3nnc4ccccc43)cc2)cc1 (stereo not drawn)
    -192% | -10% | -37% | ? | 28µM* | -6.2% | -5% | 1%
Cc1cccc(N(CC(=O)NCCSCc2ccc(Cl)cc2)S(C)(=O)=O)c1C
    . | . | . | ? | 0% | -8.1% | ? | 13µM*
